CtBP-E1A inh: CtBP/E1A binding inhibition. AlphaScreen GST-E1A/His-CtBP binding, 1536-well; hits give low values; control for the full effect not named in the record. activity change, % (no concentration beside the values). hit rate 0.49% among 340,000. AID 651724; in the data active means activity change below about -65%; inconclusive means about -30% to -65%; inactive means above about -30%; also: % is scaled to controls: 0 for no effect and ±100 for the full control effect; compound concentration not given in the record
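In 5 uL wells, 23 nL compound meets equimolar GST-E1A and His-CtBP (5X stock 125 nM each) for 2 h, 37 °C. Beads (5X, 50 ug/mL) then 1 h, 37 °C, dark.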
PINK1 expr mod: changes PINK1 expression. PINK1 immunofluorescence, high-content cytometry, 24 h. Potency, µM (top dose mostly 76.6 µM), for inactives: top-dose activation (PINK1 increase), hits mostly activators. hit rate 0.2% among 410,000. AID 624263; active = well fitted activation curve with a large enough effect; inconclusive = small, poorly fitted or top-dose-only effect; inactive = flat fitted curve, though single readings scatter; cell line not stated here;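 also: potency is read from the fitted curve at half-maximal effect; % of control where 0% means no effect; nearly all actives have a fitted effect of over 65% in size; a mitochondrial uncoupler was the plate control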
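Measures PINK1 amount and localization on or inside mitochondria by immunofluorescence. Stable cells get compounds at 5 concentrations for 24 hours before fixation and staining; CCCP controls included.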
Sfp inh: Sfp phosphopantetheinyl transferase inhibition; AID 1490; Potency, µM, for the others: max response, negative = inhibition, most hits filed as inhibitors; Biochemical Sfp PPTase activity, qHTS; hit rate 3.5% among 310,000; active = well fitted inhibition curve with a large enough effect; inconclusive = small, poorly fitted or top-dose-only effect, or another doubt; inactive = no such curve, though single readings can be large or run the other way;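 also: the enzyme is Sfp with the accession as filed and its product quenches rhodamine fluorescence; potency is read from the fitted curve at half-maximal effect; 0% = enzyme reaction without inhibitor and -100% = no enzyme wells; top concentration of the series not given in the record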
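Buffer: 50 mM Hepes-Na pH 7.6, 10 mM MgCl2, 0.01% Nonidet P-40, 0.01% BSA. Enzyme 15 nM, pre-exposed to compound 15 min; substrates then added and fluorescence change tracked over 30 min.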
Six1-Eya2 inh: blocks human Six1 binding to Eya2 | Q15475+O00167 | AlphaScreen GST-Six1/His-Eya2 binding, biochemical; hits give low values; control for the full effect not named in the record | hit rate 0.56% among 360,000 | activity change, % (no concentration beside the values); in the data active = activity change below about -65%; inconclusive = about -30% to -65%; inactive = above about -30%; also: % is scaled to controls: 0 for no effect and ±100 for the full control effect; compound concentration not given in the record
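Homogeneous AlphaScreen proximity assay pairing GST-Six1 with His-tagged Eya2 (added as 5X mix: 250 nM and 500 nM) in 50 mM Tris pH 8.0, 300 mM NaCl, 1 mM TCEP. Glutathione donor and nickel acceptor beads; 1 h, 37 °C, dark.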
D2 agonist: activates the human D2 dopamine receptor | P14416 | DiscoveRx PathHunter D2 beta-arrestin, luminescence, 90 min; 100% = 57 uM dopamine signal | activation, % (no concentration beside the values) | hit rate 0.084% among 360,000 | AID 624465; in the data active = activation above about 40%; inconclusive = about 15% to 40%; inactive = below about 15%; also: compound concentration not given in the record; the text of the record calls up to 30% inactive
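Agonist mode: compounds alone added to overnight-plated D2 PathHunter cells for 90 min at 37 C, with 57 uM final dopamine (EC100) defining full response. Beta-arrestin recruitment detected by chemiluminescent reagent, read after 1 h at ambient temperature.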
TRPV1 potentiator: human TRPV1 potentiation; TRPV1-expressing cells, Fluo-8 calcium influx, capsaicin EC20 potentiation; host cell line not named in the record; control for the full effect not named in the record; potentiation, % at 8.33 µM; hit rate 0.02% among 320,000; AID 540277; Q8NER1; active means potentiation above 80%; inconclusive means 30% to 80%; inactive means below 30%; also: 0% is about no effect
Target sequence (Q8NER1 whole entry, looked up): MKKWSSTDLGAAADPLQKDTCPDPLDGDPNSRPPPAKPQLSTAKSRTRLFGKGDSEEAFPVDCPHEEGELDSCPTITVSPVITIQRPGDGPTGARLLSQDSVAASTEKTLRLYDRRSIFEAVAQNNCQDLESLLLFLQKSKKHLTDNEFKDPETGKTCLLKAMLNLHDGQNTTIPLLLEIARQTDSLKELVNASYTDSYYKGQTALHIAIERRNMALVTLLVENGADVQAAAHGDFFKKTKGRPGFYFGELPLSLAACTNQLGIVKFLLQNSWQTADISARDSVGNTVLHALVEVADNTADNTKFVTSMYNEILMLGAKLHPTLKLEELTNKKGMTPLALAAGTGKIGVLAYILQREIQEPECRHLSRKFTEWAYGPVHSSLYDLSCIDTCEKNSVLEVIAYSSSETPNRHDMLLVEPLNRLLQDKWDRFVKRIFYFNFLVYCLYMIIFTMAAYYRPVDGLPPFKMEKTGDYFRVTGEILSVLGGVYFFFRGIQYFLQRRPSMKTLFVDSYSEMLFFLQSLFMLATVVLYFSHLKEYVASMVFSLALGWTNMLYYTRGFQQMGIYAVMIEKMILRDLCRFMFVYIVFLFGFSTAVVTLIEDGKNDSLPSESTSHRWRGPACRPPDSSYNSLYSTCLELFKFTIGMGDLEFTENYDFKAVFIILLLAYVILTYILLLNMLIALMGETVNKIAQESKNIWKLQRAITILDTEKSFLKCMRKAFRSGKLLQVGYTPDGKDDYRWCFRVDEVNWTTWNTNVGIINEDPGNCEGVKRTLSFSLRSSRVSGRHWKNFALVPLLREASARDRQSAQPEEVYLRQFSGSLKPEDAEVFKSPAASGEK
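Cells expressing TRPV1 were dye-loaded with Fluo-8 and read kinetically: 10 s baseline, 3 min after compound (agonist portion), then 2 min after EC20 capsaicin (allosteric enhancer portion). Calcium-bound dye fluorescence at 480/520 nm.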
D2 PAM: positive allosteric modulators of human D2 dopamine receptor; P14416; AID 624464; hit rate 0.23% among 360,000; potentiation, % (no concentration beside the values); DiscoveRx D2 beta-arrestin cells, luminescence, 90 min; 100% = 57 uM dopamine signal; active = potentiation of 50% or more; inconclusive = 30% to 50%; inactive = 30% or less;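 also: compound concentration not given in the record; tested on top of an EC20 dose of dopamine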
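PathHunter beta-arrestin assay in DiscoveRx D2 cells. Compounds were added with an EC20 of dopamine (50 nM final) for 90 min at 37 deg C. Luminescence was read 1 h after detection reagent, with 57 uM dopamine as the EC100 control.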
* = called active by the depositor; ? = inconclusive; / = not tested or not shown; & = joins results of further samples; [ ] = another dose, or the depositor's remark. The order is random; any-hit rate near 3.7%.

SMILES	CtBP-E1A inh	PINK1 expr mod	Sfp inh	Six1-Eya2 inh	D2 agonist	TRPV1 potentiator	D2 PAM
NC(Cc1c[nH]c2ccccc12)C(=O)NCc1ccco1 (stereo not given)	-2	-0.2%	-1%	5	-2.4	2	-9
N/C(=N\OC(=O)c1cccc2ccccc12)c1cccnc1	-8	0.0%	-28%	6	15	-1	15
CCOC(=O)N1CCN(C(=O)c2ccc([N+](=O)[O-])cc2Cl)CC1	6	0.3%	10%	2	2.1	-3	-8
CC(CCc1ccccc1)NC(=O)CN1CCN(c2ccc(O)cc2)CC1 (stereo not given)	-8	-0.1%	10µM*	-5	11	1	-3
O=C(Cc1c(F)cccc1Cl)Nc1ccc(S(=O)(=O)N2CCOCC2)cc1	3	4.7%	13%	-1	1.0	-12	10
Cc1cc(NC(=O)NC2(C(F)(F)F)Oc3ccc(Cl)cc3O2)no1 (stereo not given)	7	?	0%	-3	2.4	8	8
COc1ccccc1C(=O)NNC(=S)Nc1ccccc1	-1	-1.1%	28%	-7	-8.4	0	-19
Nc1c2nc(-c3ccccc3)[nH]c(=O)c2nc(=O)n1-c1ccccc1	/	2.2%	16%	-20	-6.7	9	-11
CC/C(=N\n1nnnc1Nc1ccccc1)c1ccccc1	-1	-2.2%	7%	6	0.3	-4	2
Cn1nnc(-c2ccc(OCc3ccccc3F)cc2)n1	9	5.4%	14%	10	1.2	-2	2
COc1cccc(-c2cccc(NC(=O)C3CCN(CC4CCOC4)CC3)c2)c1 (stereo not given)	2	-0.1%	10%	4	-6.7	13	-24
Cc1ccc(SCC(=O)c2c(C)nc3ccccn23)cc1	-4	-1.1%	4%	-1	3.0	-3	-5
O=C(Cc1cc(=O)[nH][nH]1)N/N=C/C(Cl)=C/c1ccccc1	-19&-15	-2.1%[38.3 µM]	15%&2%	-14&-14	-1.0&-4.6	4&-5	-4&-19
COc1ccc(C(=O)C=Cc2ccc3c(c2)OCO3)cc1OC	3	-1.1%	/	1	-1.4	/	-13
O=C(Cc1ccccc1)N/N=C/c1ccc([N+](=O)[O-])s1	-1	23%	-82%	0	5.0	16	7
C[C@H](Cc1ccccc1)Nc1ncnc2c1ncn2[C@@H]1O[C@H](CO)[C@@H](O)[C@H]1O	2	0.6%	11%	3	-3.5	2	3
C/C(=N\NC(=O)COc1ccccc1-c1ccccc1)c1cccnc1	1	2.1%	4%	1	1.6	-7	-3
O=[N+]([O-])c1ccc(-c2csc(N3CCc4ccccc4C3)n2)cc1	0	13%	10%	-4	-3.3	2	-28
O=c1c2ccccc2nnn1CSc1nnc(-c2ccco2)o1	-11	-0.8%	20%	-3	-4.7	18	-45
Cc1coc2c(C)c3oc(=O)c4c(c3cc12)CCCC4	1	20%[38.3 µM]	2%	1	-1.1	26	1
CCN1CCN(c2nc(-c3ccc(F)cc3)cc(=O)[nH]2)CC1	-17	1.0%	7%	-3	-1.8	5	-14
CC1=C(C(=O)NCc2ccccc2)C(c2cc(Br)cc(Br)c2OC(C)C)NC(=O)N1 (stereo not given)	-3	0.7%[38.3 µM]	-12%	0	1.3	-3	3
COc1ccc(C2=NN(C(=O)C(O)c3ccccc3)C(O)(C(F)(F)F)C2)cc1 (stereo not given)	-2	-0.9%	13%	0	9.3	19	5
Cc1cc(C)cc(NC(=O)CSCc2cnn(-c3ccccc3)c2-n2cccc2)c1	3	-3.4%	17%	-10	-2.5	5	2
COc1ccc(-c2cc3ccc(OC)cc3cn2)cc1	10	5.7%	/	3	0.8	4	-5
CC(=O)N1CCc2cc(S(=O)(=O)C(C)CC(=O)Nc3ccc(OC(F)(F)F)cc3)ccc21 (stereo not given)	2	1.7%	14%	5	8.9	13	4
COc1ccc(C(CNC(=O)CN(C)S(=O)(=O)c2ccc(C)cc2)N2CCCC2)cc1 (stereo not given)	6	-3.4%	/	-3	-3.1	/	-15
Cc1cccc(N2CCN(C(=O)C3CCC(=O)N(Cc4ccccc4F)C3)CC2)c1C (stereo not given)	3	-0.9%	3%	1	4.3	-16	-19
CCCc1nc(SCC(=O)Nc2nccs2)c2ccccc2n1	5	0.1%	16%	6	-1.9	26	-1
CCOc1ncccc1C(=O)NCCN1C(=O)S/C(=C/c2cccs2)C1=O	-24	16%	16%	-3	-2.7	14	0
O=C(NCc1ccccc1Cl)c1cc2ccccc2oc1=O	3	9.9%	8%	10	6.3	5	-1
O=C1CN(S(=O)(=O)c2ccc(F)cc2)CCN1	0	1.2%	/	2	-0.2	/	0
CC(C)(C)c1cc(CCC(=O)NNC(=O)c2ccncc2)cc(C(C)(C)C)c1O	0	3.6%	/	-1	-1.6	-18	-2
NC(=O)c1ccsc1NC(=O)COC(=O)c1ccc(Cl)c(N)c1	11	5.7%	/	13	-7.8	-3	-13
COCCN(C(=O)COC(=O)C1CC1C)c1c(N)n(Cc2ccccc2)c(=O)[nH]c1=O (stereo not given)	21	0.2%	/	0	-4.6	-1	?
CCN1C[C@@H]2[C@@H]3C(=O)N(C)C(=O)[C@@H]3[C@](CC)(C1=O)N2C(=O)c1ccc(C)cc1	5	0.1%	/	1	-1.5	/	-5
Cc1ccc(NS(=O)(=O)c2cccc3nsnc23)cc1[N+](=O)[O-]	-9	0.7%	-8%	1	0.0	12	-9
C/C(=N\NC(=O)c1ccc(OC2OCCOC2Oc2ccc(C(=O)N/N=C(\C)c3ccncc3)cc2)cc1)c1ccncc1 (stereo not given)	/	5.6%	-26%	6	-0.5	/	-3
Cc1nnsc1Sc1ccccc1C(=O)O	-1	-2.3%	4%	-1	1.6	17	2
C/C=C/c1ccc2c(c1)O[C@H](CN(C)CC1CCOCC1)[C@@H](C)CN([C@H](C)CO)S2(=O)=O	5	1.5%	/	2	-9.4	/	1
COCCN(C(=O)Cc1cccs1)C(C(=O)NCc1ccc(OC)cc1)c1ccc(C)cc1 (stereo not given)	2	/	19%	5	-1.1	-11	-14
CC(C)(C)c1ccc(OCCC(=O)Nc2cccc(S(=O)(=O)N3CCOCC3)c2)cc1	-5	23%	19%	-1	-5.4	-1	-1
CC(=O)Oc1cccc(N2C(=O)c3cccc4c([N+](=O)[O-])ccc(c34)C2=O)c1	/	?	0%	-2	41*	-18	107*
CCCCn1c(-c2ccc(OC(F)F)cc2)nc2c1c(=O)[nH]c(=O)n2CC(C)C	9	10%	2%	-1	2.7	1	0
Cc1ccn2c(C(=O)N/N=C\c3ccc4c(c3)OCO4)c(C)nc2c1	-11	7.1%	25%	-6	0.4	11	5
COc1cc(S(=O)(=O)Nc2ccccc2C(=O)N2CCCC2)ccc1NC(C)=O	5	1.7%	/	-1	2.1	-9	-21
O=C(C1=C(O)C(=O)N(CCN2CCOCC2)C1c1ccncc1)c1ccco1 (stereo not given)	0	/	2%	1	-1.3	-5	-4
COCc1ccc2oc(C(=O)O)cc2c1	3	1.4%	3%	5	-1.3	1	-2
Cc1ccc(S(=O)(=O)N2[C@@H](c3ccccc3F)C(C(=O)O)=CC[C@H]2c2cccc(Cl)c2)cc1	/	1.6%	/	7	-5.4	-13	-8
O=C(COc1ncnc2sccc12)N1CCN(S(=O)(=O)c2ccc(Cl)cc2)CC1	0	-2.5%	15%	6	-1.3	4	1
O=C(N/N=C/c1cnc2ccccc2n1)c1cccc(F)c1	1	-1.0%	6%	-14	3.2	-19	-9
O=C(Nc1cccc2ccccc12)c1ccc([N+](=O)[O-])s1	/	7.9%	15%	2	?	-20	0
COc1ccc(C(=O)C2CCCN(C(=O)c3ccc(CSC)o3)C2)cc1F (stereo not given)	-3	2.2%	?	-22	2.3	-4	9
COc1cccc(-c2nc(CS(=O)(=O)CC(=O)NCCCc3ccccc3)c(C)o2)c1	-18	3.7%&2.9%	3%	-11	-0.5	4	-17
CCC(=O)N(Cc1cc2cc(OC)ccc2[nH]c1=O)c1ccc(C)cc1	0	1.4%	13%	-6	-0.4	?	-3
COC(=O)c1c(C)[nH]c(C(=O)NCCc2ccc(S(N)(=O)=O)cc2)c1C	4	-0.9%	9%	1	-2.2	1	-13
COCCN1C=C(C(=O)OC)C(c2ccc3c(c2)OCO3)C(C(=O)OC)=C1	11	/	18%	10	-0.5	-24	-14
C[C@H](CO)N1C[C@H](C)[C@@H](CN(C)C(=O)Nc2ccccc2F)Oc2cc(Br)ccc2S1(=O)=O	3	-1.5%	/	-1	-3.9	/	-2
CC(=O)Nc1sc(C)c(C)c1C(=O)OC1CCOC1=O (stereo not given)	1	2.2%	4%	7	-2.8	7	3
COc1ccc(N2CCN(C(=O)CCc3ccc(S(=O)(=O)NC(C)(C)C)cc3)CC2)cc1	/	-0.2%	-2%	-7	-6.5	-16	-18

(list continues)
SMILES	CtBP-E1A inh	PINK1 expr mod	Sfp inh	Six1-Eya2 inh	D2 agonist	TRPV1 potentiator	D2 PAM
O=C(c1ccc(F)cc1)C1CCN(Cc2ccccc2F)CC1	-4	0.2%	/	-3	-6.5	/	-20
COc1ccc(C(=O)c2c3ccccc3[n+]([O-])n2Cc2ccc(C(N)=O)cc2)cc1	/	2.0%	/	1	-1.4	14	2
Cc1ccccc1OCCC(=O)Nc1ccc(S(=O)(=O)N(C)C2CCN(C)CC2)cc1	-5	9.9%	/	-23	5.0	16	-32
CS(=O)(=O)c1ccc(Sc2nc3ccccc3[nH]2)c([N+](=O)[O-])c1	-11	-2.0%	-2%	-11	1.1	13	-6
COCC(=O)NC1CCN(CC(=O)Nc2ccccc2[N+](=O)[O-])CC1	-7	1.1%	16%	12	-1.5	8	-6
O=C(NCCS(=O)(=O)N1CCN(c2ccccc2F)CC1)c1ccc(F)c(F)c1	7	0.7%	/	-1	-2.8	-17	6
